Compound activity deposited in PubChem by ICCB-Longwood Screening Facility, Harvard Medical School.
UCH37 DUB inh: inhibitors of human UCH37 deubiquitinase, primary screen, biochemical, Ub-AMC cleavage, fluorescence. 330,000 compounds, 0.33% hits. AID 588478, 2011. purified proteasome/UCH37. inhibition, % (test concentration not listed);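 active means mean of two replicates above 20%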;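 further: 0% = compound-free wells with enzyme and 100% = wells lacking proteasome; stock transfer was 100 nL into about 20 µL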
Target sequence (Q9Y5K5 whole entry, looked up): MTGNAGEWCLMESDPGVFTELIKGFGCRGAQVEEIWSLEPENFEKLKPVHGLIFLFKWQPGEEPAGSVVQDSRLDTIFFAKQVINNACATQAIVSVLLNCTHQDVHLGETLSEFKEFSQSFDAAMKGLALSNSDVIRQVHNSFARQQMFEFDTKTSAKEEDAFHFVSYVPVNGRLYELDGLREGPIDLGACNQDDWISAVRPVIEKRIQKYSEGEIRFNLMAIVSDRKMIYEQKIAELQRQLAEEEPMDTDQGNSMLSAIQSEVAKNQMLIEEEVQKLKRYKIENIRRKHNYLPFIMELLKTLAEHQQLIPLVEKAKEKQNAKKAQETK
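Assay system: Proteasome-bound UCH37. Buffer or medium: pH 7.4 Tris-HCl (50 mM) with ovalbumin, ATP-MgCl2, DTT. Incubation: 30 min preincubation with enzyme, 25 min cleavage at room temperature. Measured by: fluorescence, ex 355 nm, em 460 nm. Read-out basis: percent inhibition. Control set: wells without proteasome as full block, compound-free enzyme plus substrate as uninhibited.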
E coli growth: E. coli growth inhibition, primary screen, OD600 | AID 1053175, 2014 | Escherichia coli growth, 23 h; stronger effect = lower value | OD600 absorbance (test concentration not listed) | 330,000 compounds, 0.21% hits;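 active means OD600 absorbance below the run mean of sample wells minus 3.6 SD, in any replicate, cut at about 0.56 in these data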;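 further: stock transfer was 300 nL into about 60 µL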
* marks the source's active call; other numbers are inactive results. An excerpt; the hit share may differ from the screen's.

No.	canonical_smiles	UCH37 DUB inh	E coli growth
1	CC(Cc1ccccc1)=NNC(=O)c1cc(C(C)(C)C)[nH]n1	3.3	0.677
2	COc1cc(C=NNC(=O)c2cccc(C)c2)ccc1OCC(=O)Nc1ccccc1	3.9	0.653
3	CCC(=NNC(=O)c1c(C)nc2ccccn12)c1ccccc1	2.9	0.7
4	COc1ccc(O)c(C=NNC(=S)NCCc2ccccc2)c1	-35.0	0.676
5	O=C(CSc1nnc(-c2ccccc2)n1-c1ccc(Cl)cc1)NN=Cc1ccco1	1.9	0.664
6	Brc1ccc(C=NNc2ccccc2)cc1	7.1	0.63
7	CC(=NNC(=O)C(C)n1nc(C)c([N+](=O)[O-])c1C)c1ccc(OCC(N)=O)cc1 (stereo not given)	4.5	0.659
8	COC(=O)Cc1cc(=O)[nH]c(N=C(N)Nc2ccccc2)n1	5.8	0.726
9	Cc1ccc(C(=O)ON=C(c2ccccc2)c2cccnc2)cc1	0.8	0.682
10	CC(=O)C(=NNc1ccccc1Cl)Sc1nnc(C(O)c2ccccc2)n1-c1ccccc1 (stereo not given)	2.2	0.661
11	CN(CC(Cc1ccccc1)N(CC(Cc1ccccc1)N(CCC(C)(C)C)N=O)N=O)N=O (stereo not given)	-0.4	0.655
12	COc1ccc(C=Nn2cnc3c([nH]c4ccccc43)c2=O)cc1COc1ccccn1	3.4	0.712

Other structures follow.
No.	canonical_smiles	UCH37 DUB inh	E coli growth
13	COc1cc(C=NNC(=O)c2c(C)nnn2-c2nonc2N)ccc1O	-9.6	0.694
14	CCCN(CCC)c1ccc(C=NNC(=O)CN2CCOCC2)cc1	-236.5	0.671
15	COCCNC(=S)NN=C1CC(C)CC(C)(C)C1 (stereo not given)	-0.6	0.741
16	CC(C)C(NC(=O)COc1ccc2ccccc2c1)C(=O)NN=C/C=C/c1ccccc1 (stereo not given)	2.1	0.755
17	O=C(O)CC1SC(=NN=C2CCCCCCC2)N(c2ccccc2)C1=O (stereo not given)	2.1	0.702
18	CC(=NNC(=O)c1cc(C)nc2ccccc12)c1ccco1	8.1	0.707
19	CCOC(=O)C=c1sc2n(c1=O)CCN=2	-5.9	0.717
20	CN(C)CCNC(=O)C=NO	1.0	0.669
21	Cc1ccc(COc2cccc(C=NNC(=O)c3nnn(-c4nonc4N)c3C)c2)cc1	-6.7	0.723
22	CC(C)(C)OC(=O)NN=Cc1ccc(N2CCOCC2)s1	-3.7	0.669
23	O=C(NN=Cc1cccc2cccnc12)[C@H]1C[C@@H]1c1ccccc1	7.0	0.692
24	COC(=O)NN=Cc1cc(Cl)cc(Cl)c1OCc1ccc(F)cc1	2.0	0.616

New compounds follow
No.	canonical_smiles	UCH37 DUB inh	E coli growth
25	O=C(O)c1ccc(NN=Cc2ccncc2)cc1	13.5	0.68
26	O=C(NN=Cc1ccc([N+](=O)[O-])o1)C1COc2ccccc2O1 (stereo not given)	12.5	0.524
27	COc1ccc(C=NNC(=O)CCNc2n[nH]c(=O)[nH]c2=O)c(OC)c1	7.2	0.725
28	O=[N+]([O-])c1ccc(Cl)c(C=NN2CCN(c3ccccc3)CC2)c1	1.3	0.72
29	N#CC(Cn1c[n+](NC(=O)Nc2ccccc2)cn1)=NO	1.2	0.693
30	Cn1cc(C(=O)c2ccc(Cl)cc2Cl)cc1C(=O)NN=C(N)COc1ccc(Cl)cc1Cl	-1.5	0.797
31	Fc1ccc(C=NNC(=S)Nc2cccnc2)cc1	3.8	0.674
32	CCC(=NNS(=O)(=O)c1ccc(C)cc1)c1ccco1	1.4	0.682
33	NC(=O)c1cccc2c1-c1ccccc1C2=NNC(N)=S	15.5	0.661
34	COc1cc(C=NNC(=O)c2ccc(C)nc2)ccc1OC(=O)c1ccc2c(c1)OCO2	-1.7	0.609
35	COc1cccc(C=NNC(=O)c2ccc(=O)n(C)c2)c1O	5.7	0.681
36	CC(=NNC(=O)c1cc(C)oc1C)c1ccc(N2CCOCC2)cc1	-0.2	0.707

Further results.
No.	canonical_smiles	UCH37 DUB inh	E coli growth
37	O=C(Cc1ccccc1)NN=Cc1ccc2cccc(O)c2n1	3.5	0.67
38	CN1C(=c2sc(=C3C(=O)N(c4ccccc4)NC3=Nc3ccccc3)n(C)c2=O)C(C)(C)c2ccccc21	5.2	0.743
39	CC(=NNc1ccc2nncn2n1)c1ccc(Br)s1	4.8	0.638
40	COc1cc(C=NNC(=O)c2nnn(-c3nonc3N)c2-c2cccs2)ccc1O	-13.6	0.685
41	COc1cc(C=NNC(=O)c2ccc(CN(C)S(=O)(=O)c3ccc(C)cc3)cc2)ccc1O	-3.6	0.664
42	CCC(C)=NNc1ccc(S(=O)(=O)N2CCCC2)cc1[N+](=O)[O-]	1.8	0.655
43	CCC(Cc1ccccc1)=NNC(=O)c1cc(C)oc1C	2.4	0.695
44	COc1ccccc1C=NNC(=O)Cn1cnc([N+](=O)[O-])n1	3.0	0.693
45	CC1(C)CC(=O)C2=C(C1)N=c1sc(=Cc3ccc(F)c(F)c3)c(=O)n1C2c1ccc(F)cc1 (stereo not given)	0.5	0.705
46	CN1CCN(CCC(=O)NN=Cc2ccccn2)CC1	2.5	0.734
47	Cc1cccc(C=NNC(=O)c2ccc(NC(=O)c3ccccc3Cl)cc2)n1	3.3	0.679
48	Cc1cc([N+](=O)[O-])nn1CC(=O)NN=Cc1ccccc1F	1.1	0.686

Remaining list, next part
No.	canonical_smiles	UCH37 DUB inh	E coli growth
49	O=C(CC=NOCc1ccc(Cl)cc1Cl)c1ccccc1	0.0	0.651
50	COc1cc(C=NNC(=O)COc2cc(C)cc(C)c2)ccc1OS(=O)(=O)c1ccc(C)cc1	2.5	0.701
51	O=C(O)c1cccc(NN=Cc2sc(N3CCOCC3)nc2-c2ccccc2)c1	-7.6	0.7
52	CC1(C)C2CC=C(C=NNC(=S)NCCc3ccccc3)C1C2 (stereo not given)	3.7	0.688
53	COc1ccc(CC(=O)NN=Cc2cc(Br)cs2)cc1OC	2.3	0.669
54	O=C(CCC(=O)Nc1ccccc1Cl)NN=Cc1c[nH]c2ccccc12	1.9	0.661
55	COc1cccc(C=NNC(=O)C(=O)NCc2cccnc2)c1OC	3.2	0.655
56	CC(=NNC(=O)c1nnn(-c2nonc2N)c1CN1CCOCC1)c1ccc(CC(C)C)cc1	2.2	0.677
57	COc1ccc2nc(C)cc(SCC(=O)NN=Cc3ccc(O)c(O)c3)c2c1	3.8	0.682
58	COc1cc(C=NNC(=S)NCCN2CCOCC2)cc(OC)c1OC	8.7	0.688
59	ON=Cc1cn(-c2ccccc2)nc1-c1ccc2c(c1)OCCO2	4.3	0.681
60	Cn1nc(C(F)(F)F)c(C=NOC(=O)c2ccccc2Cl)c1SCc1ccc(Cl)cc1	0.2	0.679

Following part:
No.	canonical_smiles	UCH37 DUB inh	E coli growth
61	Cc1cc(C)c2ccc(C=NO)nc2c1O	1.6	0.644
62	Cc1cc2ncn(N=Cc3cccnc3)c2cc1C	9.8	0.71
63	CCCC(=NNc1ccc(Cl)cc1)c1cnnc(-c2ccccc2)n1	7.6	0.681
64	O=C(NN=Cc1cc(Br)cs1)c1c[nH]c2ccccc12	4.0	0.55
65	COC(=O)c1nn(-c2ccccc2)c(Cl)c1C=NOC(=O)c1ccc(Cl)c(Cl)c1	2.0	0.726
66	COC(=O)NN=Cc1ccc(-c2cc(Cl)c(Cl)cc2Cl)o1	-1.5	0.684
67	Oc1cccc(C=NNc2ccc(Cl)nn2)c1	9.1	0.646
68	COc1ccc(Br)cc1C=NN1CCN(Cc2ccccc2Cl)CC1	3.8	0.654
69	O=c1cnnc(NN=Cc2ccccn2)[nH]1	4.5	0.426*
70	O=C(NN=C/C=C\c1ccccc1[N+](=O)[O-])c1ccccn1	12.2	0.663
71	CC(=NN=c1sc2ccccc2n1C)c1ccc(N2CCOCC2)cc1	4.9	0.732
72	CCCCOc1ccc(C=NNC(=S)Nc2cccc(C)c2C)cc1	3.1	0.728

(continued)
No.	canonical_smiles	UCH37 DUB inh	E coli growth
73	CC(CC(=O)Nc1ccc(N(C)C)cc1)=NNC(=O)c1ccccc1O	-34.8	0.697
74	CC(=NNC(=S)NC(C)C)c1cccc([N+](=O)[O-])c1	5.4	0.673
75	O=C(NN=CC1CC2C=CC1C2)c1ccccc1O (stereo not given)	-10.6	0.671
76	CC(=NNC(=S)NC(C)C)c1ccccc1OC(F)F	4.4	0.729
77	CN(C)C(=NS(=O)(=O)c1ccccc1)c1ccccc1	-0.4	0.678
78	Cc1cccc(C)c1NC(=S)N=CN(C)C	1.5	0.687
79	COc1ccccc1N1CCN(N=Cc2ccccc2C(=O)O)CC1	5.7	0.663
80	CCOC(=O)Cn1cc(C=NNC(=O)c2cc3ccccc3o2)c2ccccc21	-26.6	0.679
81	O=C(CCCCCNC(=O)c1ccccc1)NN=Cc1ccco1	13.5	0.713
82	Cc1nc2ccccn2c1/C(O)=C1\C(=O)C(=O)N(CCCN(C)C)C1c1ccc(F)cc1 (stereo not given)	4.1	0.611
83	CCn1c(SCC(=O)NN=Cc2ccc(C)o2)nnc1-c1ccccc1	6.8	0.723
84	Cc1cccc(NC(=O)COc2ccc(C=Nn3cnnc3)cc2)c1	-0.8	0.674

(further entries)
No.	canonical_smiles	UCH37 DUB inh	E coli growth
85	O=C(COc1ccc(C=NNC(=O)c2ccncc2)cc1)Nc1ccccc1	-88.8	0.666
86	Cc1ccc(C=NNC(=O)CSc2nnc(-c3ccccc3)n2-c2ccc(Cl)cc2)o1	1.6	0.686
87	O=C(NN=Cc1ccncc1)c1ccncc1	2.8	0.707
88	CCCCNC(=S)NN=Cc1ccccc1F	3.7	0.682
89	COC(=O)NN=Cc1ccc(-c2ccc(Cl)c(Cl)c2)o1	2.3	0.682
90	CC(=NNC(=O)c1ccoc1C)c1ccccc1O	-0.1	0.658
91	CC(=NNC(=O)CCc1ccc(S(=O)(=O)N2CCOCC2)cc1)c1ccc(OC(F)F)cc1	-12.2	0.715
92	CCOC(=O)COc1ccccc1C=NNC(=O)c1cc2c(ccc3ccccc32)o1	-72.5	0.626
93	Cc1c(C=NNC(=O)c2ccc([N+](=O)[O-])cc2)cnn1C	4.9	0.626
94	Cc1ccc(C=NNC(=O)C2CCN(Cc3ccc(F)cc3Cl)CC2)o1	1.6	0.734
95	COc1ccc(-c2cc(C(=O)NN=Cc3ccc(OC)c(COCC(F)(F)C(F)F)c3)c3ccccc3n2)c(OC)c1	-33.7	0.678
96	O=C(CCC(=O)NN=Cc1c[nH]c2ccccc12)NCc1ccccc1	6.1	0.718
97	CC(=NNC(=O)c1cc(-c2ccncc2)nc2ccccc12)c1ccc(N2CCOCC2)cc1	-1.2	0.693
98	COc1cc(C=Nn2cnnc2-n2nc(C)cc2C)cc([N+](=O)[O-])c1O	29.2*	0.688
99	COc1ccc(Cl)cc1NC(=O)CC(C)=NNC(=O)Cc1ccccc1	-0.8	0.691

Reprinted: entries 1 to 20
No.	canonical_smiles	UCH37 DUB inh	E coli growth
1	CC(Cc1ccccc1)=NNC(=O)c1cc(C(C)(C)C)[nH]n1	3.3	0.677
2	COc1cc(C=NNC(=O)c2cccc(C)c2)ccc1OCC(=O)Nc1ccccc1	3.9	0.653
3	CCC(=NNC(=O)c1c(C)nc2ccccn12)c1ccccc1	2.9	0.7
4	COc1ccc(O)c(C=NNC(=S)NCCc2ccccc2)c1	-35.0	0.676
5	O=C(CSc1nnc(-c2ccccc2)n1-c1ccc(Cl)cc1)NN=Cc1ccco1	1.9	0.664
6	Brc1ccc(C=NNc2ccccc2)cc1	7.1	0.63
7	CC(=NNC(=O)C(C)n1nc(C)c([N+](=O)[O-])c1C)c1ccc(OCC(N)=O)cc1 (stereo not given)	4.5	0.659
8	COC(=O)Cc1cc(=O)[nH]c(N=C(N)Nc2ccccc2)n1	5.8	0.726
9	Cc1ccc(C(=O)ON=C(c2ccccc2)c2cccnc2)cc1	0.8	0.682
10	CC(=O)C(=NNc1ccccc1Cl)Sc1nnc(C(O)c2ccccc2)n1-c1ccccc1 (stereo not given)	2.2	0.661
11	CN(CC(Cc1ccccc1)N(CC(Cc1ccccc1)N(CCC(C)(C)C)N=O)N=O)N=O (stereo not given)	-0.4	0.655
12	COc1ccc(C=Nn2cnc3c([nH]c4ccccc43)c2=O)cc1COc1ccccn1	3.4	0.712
13	COc1cc(C=NNC(=O)c2c(C)nnn2-c2nonc2N)ccc1O	-9.6	0.694
14	CCCN(CCC)c1ccc(C=NNC(=O)CN2CCOCC2)cc1	-236.5	0.671
15	COCCNC(=S)NN=C1CC(C)CC(C)(C)C1 (stereo not given)	-0.6	0.741
16	CC(C)C(NC(=O)COc1ccc2ccccc2c1)C(=O)NN=C/C=C/c1ccccc1 (stereo not given)	2.1	0.755
17	O=C(O)CC1SC(=NN=C2CCCCCCC2)N(c2ccccc2)C1=O (stereo not given)	2.1	0.702
18	CC(=NNC(=O)c1cc(C)nc2ccccc12)c1ccco1	8.1	0.707
19	CCOC(=O)C=c1sc2n(c1=O)CCN=2	-5.9	0.717
20	CN(C)CCNC(=O)C=NO	1.0	0.669
